CapD inh = blocks the Bacillus anthracis CapD enzyme; purified CapD enzyme, fluorescence intensity read-out; active compounds read low; some hits fall short of the stated cut; z-score (concentration not given with the values); 140,000 tested, 0.23% active; AID 492967;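 active means z-score under -4 in either of two replicates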;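 further: stock transfer was 100 nL into about 40 µL; score is relative to mean and spread of the plate; one replicate is shown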
AID504770 = E. coli YBA685 growth inhibition, screen for V. cholerae RctB inhibitors; AID 504770; E. coli YBA685 rctB-dependent plasmid, OD600 growth, 3 h; active compounds read low; z-score (concentration not given with the values); 130,000 tested, 0.27% active;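 active means z-score under -2 on both plates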;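 further: wells of about 30 µL received 100 nL stock; score is relative to mean and SD of the test wells; the first replicate is given; strong numbers were not always called active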
An asterisk follows results filed as active; & = joins results of further samples.

Results for O=C(CSc1ccc(-c2ccccn2)nn1)Nc1ccccc1 ?
CapD inh: 0.79; AID504770: -0.35

How did O=c1[nH]nc(-c2cccs2)cc1CC1CCCCC1 do in these assays?
CapD inh: 0.43; AID504770: 0

How did O=C1C2C3C=CC(C3)C2C(=O)N1/N=C/c1ccccc1O (stereo not drawn) do in these assays?
CapD inh: -0.62; AID504770: -0.4

What do the screens show for `COc1cc(C(=O)NCC(c2cccnc2)N2CCOCC2)cc(OC)c1OC` (stereo not drawn)?
CapD inh: 0.14; AID504770: 0

How did COC(=O)C1=C(C)N=c2s/c(=C/c3ccc(OC)c(OC)c3)c(=O)n2C1c1ccc(OC(C)=O)cc1 (stereo not drawn) do in these assays?
CapD inh: -0.82

Results for O=C(Cc1noc2ccccc12)NCc1ccccc1 ?
CapD inh: -0.33; AID504770: -1.2

How did COc1cc(C2C(N3C(=O)c4ccccc4C3=O)C(=O)N2c2cccc(C(F)(F)F)c2)cc(OC)c1OC (stereo not drawn) do in these assays?
CapD inh: -0.21

What do the screens show for `O=C1CCCN1c1ccc(S(=O)O)cc1`?
CapD inh: 0.085; AID504770: 2.1

How did Cc1cc(-c2csc(NC3=NCCCCC3)n2)c(C)n1Cc1ccccc1 do in these assays?
AID504770: 0.15

Results for CNC(=S)N1CCN(C(c2ccccc2)c2ccccc2)CC1 ?
CapD inh: 0.02; AID504770: -0.25

How did COc1ccc(CCn2c(-c3ccc(Br)cc3)csc2=Nc2ccccc2)cc1 do in these assays?
CapD inh: 4.4

Results for O=C(NCCc1ccc(Cl)cc1)c1cc(=O)[nH]c2ccc(Br)cc12 ?
CapD inh: -0.89; AID504770: 0.1

What do the screens show for `CCCNC(=O)Cn1cnc2sc(C(=O)Nc3nc4ccc(OC)cc4s3)c(C)c2c1=O`?
CapD inh: 0.3

Results for C=CC(=O)N1c2ccccc2CCc2ccc(NC(=O)OCC)cc21 ?
CapD inh: -0.025

How did O=C(Nc1ccc(Cl)cc1Cl)c1csc(Cc2ccccc2)n1 do in these assays?
CapD inh: -0.025

What do the screens show for `CC(C)n1nnnc1SCC(=O)c1ccc2c(c1)OCCO2`?
AID504770: -0.35

What do the screens show for `CCSc1sc(C(=O)O)c(-c2cccs2)c1C#N`?
CapD inh: -0.66; AID504770: -0.25

How did CCn1c(=O)c(=O)[nH]c2cc(C(=O)NC3CCCc4ccccc43)ccc21 (stereo not drawn) do in these assays?
AID504770: -0.05

How did O=C1CS(=O)(=O)C(c2cccs2)N1CC1CC1 (stereo not drawn) do in these assays?
CapD inh: 0.22; AID504770: 0.1

How did O=C(C(Cc1ccccc1)N1C(=O)C2CCCCC2C1=O)N1CCN(Cc2ccc3c(c2)OCO3)CC1 (stereo not drawn) do in these assays?
CapD inh: 0.11

Continued; the last seven above are carried over.
Results for C=CC(=O)N1c2ccccc2CCc2ccc(NC(=O)OCC)cc21 ?
CapD inh: -0.025

How did O=C(Nc1ccc(Cl)cc1Cl)c1csc(Cc2ccccc2)n1 do in these assays?
CapD inh: -0.025

What do the screens show for `CC(C)n1nnnc1SCC(=O)c1ccc2c(c1)OCCO2`?
AID504770: -0.35

What do the screens show for `CCSc1sc(C(=O)O)c(-c2cccs2)c1C#N`?
CapD inh: -0.66; AID504770: -0.25

How did CCn1c(=O)c(=O)[nH]c2cc(C(=O)NC3CCCc4ccccc43)ccc21 (stereo not drawn) do in these assays?
AID504770: -0.05

How did O=C1CS(=O)(=O)C(c2cccs2)N1CC1CC1 (stereo not drawn) do in these assays?
CapD inh: 0.22; AID504770: 0.1

How did O=C(C(Cc1ccccc1)N1C(=O)C2CCCCC2C1=O)N1CCN(Cc2ccc3c(c2)OCO3)CC1 (stereo not drawn) do in these assays?
CapD inh: 0.11

How did O=C1/C(=C\c2cccs2)SC(=S)N1c1ccccc1 do in these assays?
CapD inh: -0.96; AID504770: 1.4

What do the screens show for `COc1ccccc1CNC(=O)c1cn(C2CCCC2)c(=O)c2c1c1ccccc1n2C`?
CapD inh: 9; AID504770: 0

What do the screens show for `CCN(C(=O)CSc1ncnc2ccccc12)c1ccccc1`?
CapD inh: -1; AID504770: -0.4

What do the screens show for `COc1ccc(CN2CCN(Cc3ccccc3C)CC2)cc1`?
CapD inh: 3.6; AID504770: -0.4

Results for O=C(Nc1ccc(Cl)c(Cl)c1)c1ccc(F)c(S(=O)(=O)N2CCN(C3CCCCC3)CC2)c1 ?
CapD inh: 0.15

How did COC(=O)/C(=C1\OC(=O)C(c2ccccc2)C1=O)c1ccccc1 (stereo not drawn) do in these assays?
CapD inh: 0.15

What do the screens show for `O=C(Nc1c2c(nn1-c1ccccc1)CSC2)c1ccccc1`?
CapD inh: 0.55; AID504770: 0.05

What do the screens show for `O=C(CN1CCN(c2cccc(Cl)c2)CC1)NC1CCCc2ccccc21` (stereo not drawn)?
AID504770: -0.35

How did COc1cn(-c2ccccc2)nc1C(=O)NCc1ccc(C)cc1 do in these assays?
AID504770: 0.2

How did NC(CCc1nc2ccccc2[nH]1)c1nc2ccccc2[nH]1 (stereo not drawn) do in these assays?
CapD inh: 5.2; AID504770: -0.1

How did C#CC1(NC(=O)NC(=O)c2ccccc2Cl)CCCCC1 do in these assays?
CapD inh: 0.68; AID504770: -0.2

Results for COc1ccc(S(=O)(=O)NC2CCCc3ccccc32)cc1OC (stereo not drawn) ?
CapD inh: -0.32; AID504770: -1.1

Results for COc1ccc(-c2nc(-c3ccc(OC)c(OC)c3OC)[nH]c2-c2ccc(OC)cc2)cc1 ?
CapD inh: 40

Results for O=C(COC(=O)c1cc2ccccc2oc1=O)Nc1ncccn1 ?
AID504770: 1.1

Results for C/C(=N\Nc1c(Cl)cc(Cl)cc1Cl)c1cc(F)ccc1OC(=O)c1ccccc1F ?
CapD inh: 0.035

How did O=C(Nc1ccc(N2C(=O)C3C4C=CC(C4)C3C2=O)cc1)Nc1ccccc1O (stereo not drawn) do in these assays?
CapD inh: -0.32; AID504770: -0.35

Results for COc1cc(/C=C2\Oc3ccc4c(C)cc(=O)oc4c3C2=O)ccc1O ?
CapD inh: 0.2

Results for COc1cccc(-n2cc(C(=O)Nc3ccc(C)cn3)c3ccccc3c2=O)c1 ?
CapD inh: 65; AID504770: -0.35

What do the screens show for `CC(C)CCNC(=O)C1CCCN(S(=O)(=O)N2CCOCC2)C1` (stereo not drawn)?
CapD inh: 1; AID504770: -0.5

Results for CCOc1ccc(C(=O)NN2CCN(C)CC2)cc1 ?
CapD inh: -0.25; AID504770: -0.1

Results for CCN(CC)S(=O)(=O)c1ccc(N2CCCCC2)c(C(=O)O)c1 ?
AID504770: 0.45

Results for CCC(C)NC(=O)C1CCCN(S(=O)(=O)c2ccc(C)cc2)C1 (stereo not drawn) ?
CapD inh: 0.48; AID504770: 1.9

Results for CN1C2=NC(=O)/C(=C/c3ccc([N+](=O)[O-])o3)N2c2ccccc21 ?
CapD inh: -0.37

How did CCCOc1ccc(C2C(C(=O)OC)=CN(Cc3ccc(OC)c(OC)c3)C=C2C(=O)OC)cc1 do in these assays?
CapD inh: 58

Results for O=C(CSc1nc2[nH]ncc2c(=O)n1-c1ccc(Br)cc1)c1ccc(Cl)c(Cl)c1 ?
CapD inh: -1.1

What do the screens show for `Cc1c(C(c2cc(I)ccc2O)c2c(C)n(C)n(-c3ccccc3)c2=O)c(=O)n(-c2ccccc2)n1C`?
CapD inh: -0.34

Results for Nc1nc2c(ncn2COC(CO)CO)c(=O)[nH]1 ?
CapD inh: -1.1

What do the screens show for `CC(C)CCN(CCC(C)C)S(=O)(=O)c1ccc2c(c1)Cc1cc(S(=O)(=O)N(CCC(C)C)CCC(C)C)ccc1-2`?
CapD inh: 0.49

What do the screens show for `COc1ccc(C(=O)n2ccc(-c3oc(C)nc3C)n2)cc1`?
CapD inh: 0.59; AID504770: 0.5

Results for CC(=O)NS(=O)(=O)c1ccc(N)cc1 ?
CapD inh: -0.27&-0.32; AID504770: 0.25

What do the screens show for `O=C(CSCc1ccc(Br)cc1)N1CCCC1`?
CapD inh: 0.15; AID504770: 0.1

Results for CC(=O)Nc1ccc(C)c(NS(=O)(=O)c2cc(Cl)ccc2Cl)c1 ?
CapD inh: 0.92

What do the screens show for `NC(=O)c1ccc(-c2ccccc2)o1`?
AID504770: -1.1

Results for CC1CCN(CCCNC(=O)C2(S(=O)(=O)c3ccc(Cl)cc3)CC2)CC1 ?
CapD inh: 1.6; AID504770: -0.05

What do the screens show for `O=C(c1nnc(Cc2ccc(Cl)cc2)o1)N1CCOCC1`?
CapD inh: -0.32; AID504770: -0.7

How did CC1CN(C(=O)COC(=O)c2cccs2)CC(C)O1 (stereo not drawn) do in these assays?
AID504770: -0.25

How did N#CCCn1c(SCc2cc3c(cc2Br)OCO3)nc2ccccc21 do in these assays?
AID504770: -0.25

Results for CS(=O)(=O)N1CCN(c2ccc(NC(=O)c3cccs3)cc2F)CC1 ?
CapD inh: 0.085

What do the screens show for `CC12CCC(C1)C(C)(C)C2NS(=O)(=O)c1ccc(C#N)cc1` (stereo not drawn)?
CapD inh: -0.78

How did CC(C)C(=O)Nc1nnc(-c2ccccc2)s1 do in these assays?
CapD inh: 9.1; AID504770: 0.95

How did O=C(CSc1nnc(NC2CC2)s1)c1ccc[nH]1 do in these assays?
AID504770: -1.8

How did O=S(=O)(c1ccc(Br)s1)N1CCCC1 do in these assays?
CapD inh: -0.15

What do the screens show for `CC1(C)CC(=O)C2=C(C1)N(c1ccc(Br)cc1)C(N)=C(C#N)C2c1cccnc1` (stereo not drawn)?
CapD inh: 0.27

What do the screens show for `CSc1nnc2ccc(-c3cccnc3)nn12`?
AID504770: 0.7

Results for COc1ccc(C(=O)CS(C)(=O)=O)cc1 ?
CapD inh: -0.41; AID504770: 0.05

How did CCc1ccccc1NC(=O)C(Cc1cccc(OC)c1)c1nn[nH]n1 (stereo not drawn) do in these assays?
AID504770: -0.35

What do the screens show for `CC(=O)Oc1c[n+]([O-])n(-c2ccccc2)n1`?
CapD inh: 41; AID504770: -0.1

What do the screens show for `COc1ccc(C2CC(=O)NC2=O)cc1Br` (stereo not drawn)?
CapD inh: 0.54; AID504770: -0.3

How did COC(=O)C1=C(CSc2nccn2C)NC(=O)NC1c1ccc(OC)cc1 (stereo not drawn) do in these assays?
AID504770: -1

Results for O=C(c1ccc(F)c(F)c1)N1CCN(c2cc(N3CCCCC3)c(F)cc2[N+](=O)[O-])CC1 ?
CapD inh: 0.045

Results for CC(=O)Nc1ccc(-c2nnc(-c3ccccc3)c(-c3ccccc3)n2)cc1 ?
CapD inh: -0.41; AID504770: 2

What do the screens show for `COc1ccccc1CNC(=O)CSCc1nc(-c2ccccc2F)oc1C`?
CapD inh: 0.38; AID504770: 0.75

How did COc1ccc(/C=C2/SC(=S)N(C)C2=O)c(OC)c1 do in these assays?
CapD inh: 0.46; AID504770: -0.95

Results for c1csc(CCNc2ncnc3sc4c(c23)CCC4)c1 ?
CapD inh: 3.6; AID504770: -0.85

Results for Cn1c(=O)c(C2=NN=C3NNC(c4ccccc4)C32)c(O)c2ccccc21 (stereo not drawn) ?
CapD inh: 6.1; AID504770: 0

Results for CC(=O)Nc1cccc(C(=O)OCC(=O)Nc2nnc(-c3ccccc3)o2)c1 ?
AID504770: 0.25

Results for COCCOC(=O)c1c(C)oc2ccc(NS(=O)(=O)c3c(C)cc(C)cc3C)cc12 ?
CapD inh: -0.32; AID504770: 2

How did O=C(O)CC1(CC(=O)NC2CCN(Cc3ccccc3)CC2)CCCC1 do in these assays?
CapD inh: 0.03; AID504770: 0.8

Results for COc1ccccc1NC(=O)N1CCN(C(c2ccccc2)c2ccccc2)CC1 ?
CapD inh: -0.08; AID504770: -0.15

Results for CCC1C(=O)N=C(SCC(=O)Nc2ccc(C)cc2)N(c2ccccc2)C1=O (stereo not drawn) ?
CapD inh: 0.065

Entries listed so far that have fluorine, in the order listed:
How did COc1cc(C2C(N3C(=O)c4ccccc4C3=O)C(=O)N2c2cccc(C(F)(F)F)c2)cc(OC)c1OC (stereo not drawn) do in these assays?
CapD inh: -0.21

Results for O=C(Nc1ccc(Cl)c(Cl)c1)c1ccc(F)c(S(=O)(=O)N2CCN(C3CCCCC3)CC2)c1 ?
CapD inh: 0.15

Results for C/C(=N\Nc1c(Cl)cc(Cl)cc1Cl)c1cc(F)ccc1OC(=O)c1ccccc1F ?
CapD inh: 0.035

Results for CS(=O)(=O)N1CCN(c2ccc(NC(=O)c3cccs3)cc2F)CC1 ?
CapD inh: 0.085

Results for O=C(c1ccc(F)c(F)c1)N1CCN(c2cc(N3CCCCC3)c(F)cc2[N+](=O)[O-])CC1 ?
CapD inh: 0.045

What do the screens show for `COc1ccccc1CNC(=O)CSCc1nc(-c2ccccc2F)oc1C`?
CapD inh: 0.38; AID504770: 0.75

(cont.)
How did FC(F)(F)c1cccc(Oc2nccnc2-c2noc(-c3cccs3)n2)c1 do in these assays?
CapD inh: 1.5; AID504770: 0.2

How did CC1=C(C(=O)O)N2C(=O)[C@@H](NC(=O)[C@H](N)C3=CCC=CC3)C2SC1 (stereo partly drawn) do in these assays?
AID504770: 0.25

Results for CN(C)CCOC(=O)C1(C#N)CC2c3ccccc3C1c1ccccc12 (stereo not drawn) ?
CapD inh: -0.25; AID504770: -0.75

What do the screens show for `Cn1c(=O)n(C)c2cc(CNC3CCCCC3)ccc21`?
CapD inh: -0.83; AID504770: -1.6

How did Clc1cccc(Cl)c1CSCc1cc2ccccc2o1 do in these assays?
CapD inh: 0.31; AID504770: 1.7

What do the screens show for `Cc1cc(C)n(CCc2nnc(N)s2)n1`?
AID504770: -1.1

How did Cc1cc2c(cc3c(=O)n(CC(=O)NCc4ccccc4)ncn32)o1 do in these assays?
CapD inh: -0.67; AID504770: -0.25

What do the screens show for `COc1ccccc1NCCC(=O)Nc1cccc(C)c1C`?
AID504770: 0.25

What do the screens show for `O=C(CC(C(=O)c1cccs1)c1ccsc1)c1cccs1` (stereo not drawn)?
CapD inh: -0.61

What do the screens show for `Cc1cccc(NS(=O)(=O)CC23CCC(CC2=O)C3(C)C)c1` (stereo not drawn)?
CapD inh: 0.35; AID504770: 1.5

Results for CCn1c(SCC(N)=O)nnc1-c1c[nH]c2ccccc12 ?
CapD inh: -0.42; AID504770: 0.5

Screening data as filed in PubChem.
